Screening results from PubChem.
ugtP null kill: compounds lethal to S. aureus RN4220 ugtP deletion mutant | OD600 growth, 16 h; some inactives read as strong as hits | growth inhibition, % (no concentration beside the values) | 330,000 tested, 0.54% active;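 active means z-score under -3 and OD600 up to 0.15 on both plates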;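 further: plate controls were untreated wells for no effect and antibiotic for full effect; wells of about 80 µL received 100 nL stock; the first replicate is given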
BJeLR viability: BJeLR cell viability loss. BJeLR (HRASV12) viability, CellTiter-Glo ATP luminescence, 48 h; reference of the scale not given here. inhibition, % (test concentration not listed). 300,000 tested, 0.17% active;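 active means replicate mean above 50%; inconclusive means above 50% but judged a plate artefact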;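 further: 50 nL library stock added to about 25 µL; numbers are from one replicate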
Mtb hypoxia rep: reduces hypoxia-regulated biosensor signal in M. tuberculosis | M. tuberculosis hypoxia-regulated fluorescent reporter, fluorescence | fluorescence inhibition, % (concentration not given with the values) | 300,000 tested, 0.1% active | AID 1159583;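 active means 35 to 45% if threefold the growth effect, above 45% if 1.5-fold the growth effect; inactive means the rest, general growth blockers included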;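 further: wells of about 50 µL received 100 nL stock; 0% = vehicle wells and 100% = reference inhibitor wells; whole bacteria with a GFP reporter of the hypoxia response; strong numbers were not always called active; many hits fall short of the cut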
PrP 5UTR inh: suppresses PrP 5' UTR mRNA reporter expression | cell-based PrP 5' UTR mRNA reporter, plate reader | 340,000 tested, 0.35% active | inhibition, % (no concentration beside the values) | AID 488862;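 active means every replicate at 50% or more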;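 further: 0 = median of the neutral control wells; tested in H4 reporter cells; numbers are from one replicate; inactives centre near -14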
RN4220 kill: S. aureus RN4220 growth inhibition; 330,000 tested, 0.33% active; inhibition, % (test concentration not listed); AID 1259311; OD600, 16 h;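 active means z-score of -3 or lower and OD600 up to 0.18 on both plates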;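 further: plate controls were untreated cells for no effect and reference antibiotic for full effect; stock transfer was 100 nL into about 80 µL; one replicate is shown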
Bead autofluor: counter-screen for toxin protease inhibitors: compound fluorescence | 360,000 tested, 3.1% active | AID 624483 | compound autofluorescence counterscreen, microsphere flow cytometry; active compounds read high | fluorescence intensity (test concentration not listed);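 active means at least 3 SD above the mean of all compounds, about 16000 in these data; inconclusive means too few beads counted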;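 further: 100 nL of 1 mM stock went into each well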
Mtb hypoxia rep growth: second read-out of Mtb hypoxia rep, no call of its own (marks repeat the call); growth inhibition, %; measured here: M. tuberculosis growth (absorbance);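 0% = vehicle and 100% = reference antibiotic; read after six days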
* = called active by the depositor; ? = inconclusive; · = not tested or not shown.

A first look, 2 compounds:
molecule	ugtP null kill	BJeLR viability	Mtb hypoxia rep	Mtb hypoxia rep growth	PrP 5UTR inh	RN4220 kill	Bead autofluor
CCCc1nc(SCC(=O)Nc2nnc(CC)s2)c2c(=O)n(C)c(=O)n(C)c2n1	-2	2	-3	-3	-5	2.0	5344
O=C(NCc1cccc(C(F)(F)F)c1)C1CCCN(c2cnccn2)C1 (centres undefined)	6	4	-2	-10	-13	2.0	4688

The listing, from the first entry:
molecule	ugtP null kill	BJeLR viability	Mtb hypoxia rep	Mtb hypoxia rep growth	PrP 5UTR inh	RN4220 kill	Bead autofluor
CCCc1nc(SCC(=O)Nc2nnc(CC)s2)c2c(=O)n(C)c(=O)n(C)c2n1	-2	2	-3	-3	-5	2.0	5344
O=C(NCc1cccc(C(F)(F)F)c1)C1CCCN(c2cnccn2)C1 (centres undefined)	6	4	-2	-10	-13	2.0	4688
CCOC(=O)C1CCN(C(=S)Nc2ccc(CC)cc2)CC1	5	-1	7	8	-10	5.4	3314
O=C(CSc1ccc(-c2ccc(F)cc2)nn1)N1CCOCC1	4	4	6	2	-29	3.6	3156
O=C(CCN1C(=O)c2ccccc2S1(=O)=O)Nc1ccc(Cl)cc1	-2	-3	11	31	-12	3.0	6026
CCCCc1ccc2[nH]cc(CCN)c2c1	5	5	12	-4	-12	-0.4	11667
COc1ccc(CC(=O)Nc2ccc(-c3nc4cc(C)ccc4o3)c(O)c2)cc1OC	-4	2	·	·	-61	-0.8	4633
O=S(=O)(N1CCCCC1)N1CCN(c2ccccc2F)CC1	-1	-5	5	10	-8	-0.4	6846
OC1CCNC(=S)N1c1ccccc1 (centres undefined)	6	8	11	4	-26	7.1	4350
CCOc1ccc(C2=NNC(c3cccnc3)=Nc3ccc(OC)cc32)cc1	-5	1	-14	-14	-13	-5.3	2206
CCOC(=O)C(C)Oc1cccc2c(=O)n(CC(=O)NCc3ccco3)ccc12 (centres undefined)	-5	18	6	12	6	-7.9	4447
O=C(NNc1c2ccccc2nc2ccccc12)c1cccc(O)c1	-5	12	25	4	27	0.4	1651
Cc1cc2nn(-c3cccc4ccccc34)nc2cc1NC(=O)c1cccs1	7	0	15	2	-5	-0.5	9593
CC1(C)OC1COc1c2ccoc2cc2oc(=O)ccc12 (centres undefined)	-2	3	-10	4	-11	4.3	4658
CC(=NO)c1ccc2c(c1)CC(C)O2 (centres undefined)	2	·	-2	1	·	2.3	·
O=C(NCc1cccnc1)C1CC(c2ccc(F)cc2)=NO1 (centres undefined)	5	-10	4	7	-25	1.5	10440
COc1ccc(OC)c(C2=NOC(C(=O)N3CCCc4ccccc43)C2)c1 (centres undefined)	9	-3	7	5	-16	2.8	7162
CCc1cccc(C)c1NC(=O)N(C)C1CCCCC1	4	1	10	5	-25	2.8	6410
COc1cccc(NC(=O)CCc2nc(-c3ccccc3F)no2)c1	7	2	2	-4	-16	4.8	7667
COc1ccc(OC)c(C2C(C(=O)c3ccco3)=C(O)C(=O)N2CC2CCCO2)c1 (centres undefined)	-10	0	-11	3	-38	0.8	3659
O=C(CCN1C(=O)/C(=C/c2cccs2)SC1=S)Nc1ccccc1O	0	-9	8	6	-6	9.5	3058
Cc1cc(C)cc(NC(=S)N2CCC(NC(=O)C3CCCCC3)CC2)c1	14	-3	-6	-1	-20	1.9	4395
O=C(NCCCN1CCOCC1)c1csc2c1CCCC2	9	-1	19	7	-17	7.1	9172
Cn1c(=O)c2[nH]c(N=NNc3ccccc3F)nc2n(C)c1=O	3	1	-1	-2	-25	1.6	5010
COc1ccc(NC(=S)NCCC2=CCCCC2)cc1OC	3	-5	6	7	-11	4.5	4265
CN(Cc1ccc(Br)cc1)CC(O)COc1cccc(Br)c1 (centres undefined)	-7	1	14	6	-3	-1.9	4311
Cn1c(-c2cnn(-c3ccccc3)c2-n2cccc2)n[nH]c1=S	-1	12	11	6	-26	6.0	4134
CCOC(=O)c1c(NC(=O)Cn2nc(C(F)F)cc2C(F)F)sc(C)c1C	-5	2	·	·	-14	2.1	3954
CN(C)c1ccc(N=Cc2nc(-c3ccccc3)oc2OC(=O)c2cccc(Br)c2)cc1	·	-2	·	·	-148	·	2901
Cc1ccc(C)c(N2CCN(C(=O)c3ccc(NC4=NC5CS(=O)(=O)CC5S4)cc3)CC2)c1 (centres undefined)	-2	0	3	8	-11	-12	5609
CN(C)c1cc[n+](CC(=O)Nc2ccc(Cl)cc2)cc1	7	9	11	3	-17	5.7	3024
Cc1ccnc(NC(=O)c2ccc3c(c2)NC(=O)C(C)S3)c1 (centres undefined)	-5	·	0	6	-22	-0.1	2917
CCOc1ccc(NC(=O)COc2ccc3c(c2)CCC3)cc1OC	-8	·	-2	8	2	-0.4	?
Cc1ccc(-n2c(C)nc3c(cnn3-c3ccc(F)cc3)c2=O)cc1C	3	5	·	·	-35	-3.5	4132
COc1ccc(N2C(=O)C3C(C2=O)C2C=CC3C23CC3)c(OC)c1 (centres undefined)	2	·	·	·	-4	-0.5	2849
Cc1c(C(=O)NCCSCc2c(Cl)cccc2Cl)cccc1[N+](=O)[O-]	3	3	10	9	-22	11	4350
CN(CC(=O)Nc1cccc(F)c1)C(=O)c1ccccc1OCCOc1ccccc1	0	8	5	2	-2	2.7	4916
O=C(c1cccs1)N1CCN(c2ncc(Br)cn2)CC1	12	-2	4	-3	-22	4.1	5989
CN(C)C(CNC(=S)Nc1cccc(Cl)c1)c1ccccc1 (centres undefined)	8	3	-3	9	-10	2.0	4161
CCOc1ccc(CNS(=O)(=O)c2c(C(=O)N3CCCC3)c(C)n(C)c2C)cc1OC	15	5	6	-4	6	6.8	?
CCOc1ccccc1C(=O)NCC(=O)N(C)Cc1cccnc1	3	3	17	3	-6	2.0	4100
CCCNC(=O)C1CCN(S(=O)(=O)c2ccc(-c3nn[nH]n3)cc2)CC1	8	1	1	10	-19	0.2	6118
CCC(=O)Nc1c(-c2ccc3ccccc3c2)nc2ccccn12	-1	5	-20	-11	-6	1.9	3793
CCC(C)(C)c1ccc(OCCCC[n+]2ccc(C)cc2)c(C(C)(C)CC)c1	100*	24	·	·	·	100*	·
C/C(Cn1cnc([N+](=O)[O-])n1)=N\NC(=O)c1cccnc1	·	4	·	·	-4	·	2536
Cc1ccc(-c2nnn(CC(=O)N(CC(=O)NC3CCCC3)c3ccccc3F)n2)o1	0	-11	-5	-5	-24	0.8	6135
O=C(NC(Cc1ccccc1)C(=O)O)/C(=C\c1ccc(Br)cc1)NC(=O)c1ccc(Br)o1 (centres undefined)	11	0	3	-1	-17	-1.7	5090
CC1CCC(C#N)(N(C)C(=O)CSc2nnc(C3CC3)n2C2CC2)CC1 (centres undefined)	5	·	6	-8	-16	0.3	3971
Cc1[nH]n(-c2ccccc2)c(=O)c1/C=N/N(c1ccccc1)c1ccccc1	·	4	·	·	1	·	4527
NNC(=O)CSc1nc(-c2ccccc2)cn1-c1ccccc1	4	7	-4	5	-23	3.4	5605

Additional entries:
molecule	ugtP null kill	BJeLR viability	Mtb hypoxia rep	Mtb hypoxia rep growth	PrP 5UTR inh	RN4220 kill	Bead autofluor
CCN(CC)C(=O)CSc1nnc(-c2ccco2)n1Cc1ccco1	5	13	8	10	-9	4.3	10958
Cc1cccn2c(NCc3ccc4c(c3)OCO4)c(-c3ccc(O)cc3)nc12	0	1	9	8	-12	7.6	4695
CCOc1ccc(CNC(=O)C2CCN(S(=O)(=O)CC)CC2)cc1OC	0	8	-3	6	-3	-0.3	5504
COc1cc(CN2CCC(Cc3ccccc3)CC2)cc([N+](=O)[O-])c1O	0	-6	9	15	-18	1.6	3411
CN(C(=O)c1cccc(NC(=O)Cc2cccc(NC(=O)C3CCCN(C(=O)C4CCCC4)C3)c2)c1)C1CC1 (centres undefined)	9	·	-2	-3	20	1.7	3714
Cc1ccc(-c2n[nH]c(=S)n2/N=C/c2ccc(C)o2)cc1	·	-2	·	·	-20	·	2134
CCOc1ccccc1Nc1cc(C)nc2nnnn12	2	-10	2	10	-16	3.8	4890
COc1cc(Cc2nccc3cc(OC)c(OC)cc23)c(NC(C)=O)cc1OC	8	3	11	2	-31	3.8	4196
CC(=O)Nc1nonc1-c1nc2ccccc2n1Cc1ccccc1	-4	3	2	8	-24	5.0	3900
COc1ccc(C)cc1-n1nnnc1SCC(=O)c1cc(C)n(Cc2ccco2)c1C	-4	-14	-14	-1	-9	-3.2	4319
CC(C)(C)Nc1nc(N2CCCC2)nc(N2CCCC2)n1	15	6	-28	-3	-13	12	3339
CCn1c(CN2CCOCC2)nnc1SCC(=O)Nc1cccc(C)c1	1	-10	4	3	-22	0.8	6538
COc1ccccc1NC(=O)CN1CCN(CC(=O)Nc2cc(NC(C)=O)ccc2OC)CC1	0	-3	·	·	1	0.3	4451
CCn1c(SCC(=O)Nc2ccccc2)nc2c1c(=O)n(C)c(=O)n2C	-1	13	-6	-3	1	-0.8	5805
CCc1cccc(OCC(=O)Nc2ccc(S(=O)(=O)Nc3onc(C)c3C)cc2)c1	-4	15	·	·	-22	5.2	5641
COc1ccc(C(=O)COC(=O)c2ccc(-n3cnnn3)cc2)c(OC)c1	16	11	9	-7	0	3.4	?
CCN(CC)CC(O)COc1ccccc1C(=O)CCc1ccccc1 (centres undefined)	5	-4	13	2	-29	2.5	8991
O=S(=O)(NCCCN1CCOCC1)c1ccc(F)c(Cl)c1	4	·	15	3	·	7.2	5290
Cc1nc2sccn2c(=O)c1S(=O)(=O)N1CCN(c2cccc(C(F)(F)F)c2)CC1	5	3	2	5	-22	-3.7	4347
CCn1c(-c2ccsc2)nc2c1c(=O)[nH]c(=O)n2Cc1ccccc1	10	1	7	2	-8	2.2	8794
O=c1cc(O)c(-c2ccc(Cl)c(Cl)c2)c(Cl)[nH]1	1	11	3	7	-26	-0.3	2050
N#Cc1ccccc1NC(=O)c1cccc(COc2ccc(Cl)cc2Cl)c1	3	-11	7	-4	-51	18	2604
CC(=O)Nc1ccc(N2C(=O)CSC2c2ccc(F)cc2)cc1 (centres undefined)	0	-5	3	1	1	2.0	4002
COc1ccc(-c2nn3c(-c4ccccc4)nnc3s2)cc1OC	-3	1	13	9	·	6.8	9250
COc1cccc(NC(=O)CN(C)C(C)C(=O)Nc2ccc(S(=O)(=O)N3CCCC3)cc2)c1 (centres undefined)	1	11	14	8	1	2.1	4321
COc1cc(C#N)ccc1OCC(=O)NCCC1=CCCCC1	3	·	11	3	-13	4.6	3837
O=C(C1CCC(=O)N(C2CCCC2)C1)N1CCN(Cc2cccc(Cl)c2)CC1 (centres undefined)	5	-10	13	16	-12	-0.1	5346
COC(=O)c1ccsc1NC(=O)CSc1nnnn1Cc1ccccc1	-5	·	·	·	-1	3.3	2280
Cc1ccc2c(c1)c(-c1ccccc1)nc1nncn12	10	-4	5	10	-3	4.7	4289
CC(C)(C)[C@H]1CCC(=O)N([C@H](CN=[N+]=[N-])Cc2ccccc2)CC1	·	-6	·	·	-25	·	3989
O=S(=O)(/N=C(\c1ccc(Cl)cc1)N1CCOCC1)c1ccccc1	·	-1	·	·	-16	·	1955
Brc1ccc(-c2nnc3n2-c2ccccc2CC3)cc1	-6	-5	-2	2	-9	5.0	10322
CCCCCn1c(=O)c(C(=O)c2ccccc2)nc2ccccc21	15	2	1	2	-2	5.9	18403*
CC(=O)c1cnn(-c2ccc(Cl)c(Cl)c2Cl)c1C	-11	2	-9	4	·	-4.0	3788
CCCN(CCC)CCNC(=O)C1CC(=O)N(c2ccc(OC)cc2)C1c1ccc(OC)cc1 (centres undefined)	-1	8	19	8	-13	0.9	4287
COc1ccccc1N(C(=O)CNC(=O)c1ccco1)C(C(=O)NC1CCCCC1)c1ccncc1 (centres undefined)	16	3	3	4	-18	1.3	4764
CCOc1cccc(C=NNC(=S)Nc2cc(S(=O)(=O)N3CCOCC3)ccc2N2CCOCC2)c1O	-13	·	1	3	·	5.9	·

Rows are unselected (roughly 3.9% active in at least one column).
